# Screening data: PubChem BioAssay, several laboratories
# UCH37 inh: inhibitors of human deubiquitinating enzyme UCH37 | Q9Y5K5 | purified proteasome/UCH37, Ub-AMC cleavage fluorescence | inhibition, % (concentration not given with the values) | 330,000 tested, 0.33% active;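 active = mean of two replicates above 20%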;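 also: 0% = compound-free wells with enzyme and 100% = wells lacking proteasome; stock transfer was 100 nL into about 20 µL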
# Target sequence (Q9Y5K5 whole entry, looked up): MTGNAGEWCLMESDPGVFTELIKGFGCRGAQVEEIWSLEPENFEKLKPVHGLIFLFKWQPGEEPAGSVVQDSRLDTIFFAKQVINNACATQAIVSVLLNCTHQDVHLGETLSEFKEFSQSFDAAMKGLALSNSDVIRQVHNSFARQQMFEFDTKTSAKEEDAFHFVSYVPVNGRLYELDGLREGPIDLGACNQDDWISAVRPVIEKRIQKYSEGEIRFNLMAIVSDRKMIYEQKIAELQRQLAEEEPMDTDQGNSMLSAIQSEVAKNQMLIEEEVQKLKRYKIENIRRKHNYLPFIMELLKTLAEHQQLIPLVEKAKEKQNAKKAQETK
#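 Material: Human UCH37 enzyme supplied as purified proteasome complex | Schedule: 30 min preincubation with enzyme, 25 min cleavage at room temperature | Detection: AMC fluorescence 355/460 nm | Measure: % inhibition of Ub-AMC cleavage fluorescence | Controls: Wells without proteasome as full block, compound-free enzyme plus substrate as uninhibited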
# HNF4A DNA FP: change in binding of human HNF4 alpha to DNA; P41235; HNF4a-FITC DNA binding, fluorescence polarization, 1 h; activity change, % at 10 µM; 360,000 tested, 0.3% active; in the data active = activity change above about 30%, passing the limit was not always enough;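 also: controls were the assay level and a saturating level of protein; the project sought stronger binding though the title names inhibitors; some compounds called inactive have numbers as strong as hits; positive values seem to mean higher polarization but the record does not say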
# Beta2AR agonist: agonists of human beta-2 adrenergic receptor inducing internalization; Am2.2-beta2AR cells, FAP receptor internalization, flow cytometry; reference of the scale not given here; response, % (test concentration not listed); 340,000 tested, 0.43% active; AID 504454;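 active = response above a set limit, near 3 SD of response in nonfluorescent compounds, cut at about 42% in these data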;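 also: stock transfer was 100 nL into about 11 µL; a reference agonist was the positive control; negative values mostly stem from fluorescent compounds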
# Target sequence (P07550 whole entry, looked up): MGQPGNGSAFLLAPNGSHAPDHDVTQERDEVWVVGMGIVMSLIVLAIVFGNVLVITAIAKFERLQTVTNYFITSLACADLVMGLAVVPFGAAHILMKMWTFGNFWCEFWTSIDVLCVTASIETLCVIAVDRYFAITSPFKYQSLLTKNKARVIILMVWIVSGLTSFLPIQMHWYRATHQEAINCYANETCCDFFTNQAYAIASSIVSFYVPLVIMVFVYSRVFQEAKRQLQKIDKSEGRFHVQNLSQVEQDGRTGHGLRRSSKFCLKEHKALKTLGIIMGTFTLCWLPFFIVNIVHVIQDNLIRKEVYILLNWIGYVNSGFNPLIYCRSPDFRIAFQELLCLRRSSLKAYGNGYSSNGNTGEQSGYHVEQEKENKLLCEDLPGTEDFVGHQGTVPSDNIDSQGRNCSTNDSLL
# E coli growth: inhibitors of Escherichia coli growth; OD600, 23 h; hits give low values; OD600 absorbance (no concentration beside the values); 330,000 tested, 0.21% active;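 active = OD600 absorbance below the run mean of sample wells minus 3.6 SD, in any replicate, cut at about 0.56 in these data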;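 also: stock transfer was 300 nL into about 60 µL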
# ALR inh: blocks human ALR sulfhydryl oxidase activity; P55789; purified ALR, DTT oxidation, H2O2 HRP-luminol luminescence; inhibition, % (concentration not given with the values); 290,000 tested, 3.8% active; AID 485317;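 active = mean and each replicate at 75% or more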;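 also: stock transfer was 7.5 nL into about 7.5 µL; 0% = neutral wells and 100% = wells with inactivated enzyme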
# FGF22 binding: shifts melting point of recombinant human FGF22; Q9HCT0; recombinant FGF22 thermal shift, SYPRO orange fluorescence; percent of sucrose octasulfate shift, DMSO zero; calls only at 9.99 µM; 340,000 tested, 1.5% active; AID 651658;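 active = melting point raised past a set limit in the mean and every replicate; three in four hits are not shown here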
# Target sequence (Q9HCT0 whole entry, looked up): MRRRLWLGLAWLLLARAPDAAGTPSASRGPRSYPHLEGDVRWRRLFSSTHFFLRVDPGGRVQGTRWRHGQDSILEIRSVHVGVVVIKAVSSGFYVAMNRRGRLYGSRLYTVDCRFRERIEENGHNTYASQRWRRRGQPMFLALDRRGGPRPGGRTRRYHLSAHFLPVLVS
# Ecoli rRNA inh: inhibits bacterial ribosomal RNA function over humanized ribosomes | 350,000 tested, 1.6% active | E. coli WT GFP vs humanized-ribosome RFP mutants, fluorescence, 24 h; hits give low values; DMSO median 0, no signal -100 | GFP signal change (wild-type ribosome), % (no concentration beside the values);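 active = significant combined selectivity score with lowered wild-type GFP, culture density cut under 30%, mutant RFP and density less affected; inactive = any of these conditions unmet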; also: one replicate is shown; some compounds called inactive have numbers as strong as hits
# Ecoli rRNA inh OD600: also measured in Ecoli rRNA inh; calls as there; OD600 change, %; measured here: OD600 growth;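 optical density of the mix in the first replicate; 0 = DMSO median and -100 = no signal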
# Ecoli rRNA inh RFP: second read-out of Ecoli rRNA inh, no call of its own (marks repeat the call); RFP signal change, %; measured here: RFP humanized mutant strains;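 first replicate; 0 = DMSO median and -100 = no signal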
# * hit, by the source's call; i = inactive; / = no result given; & = joins results of further samples. This is a subset, so the mix of outcomes need not match the whole.
no.	smiles	UCH37 inh	HNF4A DNA FP	Beta2AR agonist	E coli growth	ALR inh	FGF22 binding	Ecoli rRNA inh	Ecoli rRNA inh OD600	Ecoli rRNA inh RFP
1	CC(C)(C)c1ccc(-c2noc(CCC(N)=O)n2)cc1	4.3	-1.3	-2	0.69	-15	/	-3	-5	-3.4
2	O=c1[nH]c2cccnc2n1-c1cccc([N+](=O)[O-])c1	3.9	/	/	0.73	2	/	9	5	2.4
3	COc1ccc(CCC(=O)N2CCN(S(=O)(=O)c3cccs3)CC2)cc1	5.2	2.3	-1	0.69	/	i	2	5	0.4
4	Cc1c(CCOC(=O)c2ccc(Cl)cc2Cl)sc[n+]1CC(=O)c1ccc(Br)cc1	2.2	-2.3	5	0.6	23	i	-53	-64	-14
5	COc1ccc(-n2c(N3CCN(C)CC3)nc3sc4c(c3c2=O)CCCCC4)cc1	2.4	7.9	0	0.64	-2	/	/	/	/
6	CN(C)S(=O)(=O)c1ccc(NC(=O)COc2ncnc3c2cnn3-c2ccccc2)cc1	2.8	2.1	-3	0.66	-12	/	/	/	/
7	O=C(Cn1cnc2c(nnn2Cc2ccc(Cl)cc2)c1=O)c1ccccc1	-0.3	3.5	29	0.79	6	i	11	6	-1.2
8	CCOC(=O)c1c(NC(=O)c2c(-c3ccccc3)noc2C)sc(C)c1-c1ccccc1	-26	0.0	3	0.74	/	/	/	/	/
9	CN(CCO)C(=O)c1nc[nH]c1C(=O)N(C)Cc1ccccc1	/	2.1	/	/	/	i	9	15	-1.5
10	Cc1ccc(C(=O)NCC(=O)Nc2ccc(S(=O)(=O)Nc3cc(C)nc(C)n3)cc2)cc1	0.9	3.6	-2	0.73	/	i	11	11	2.2
11	O=S(=O)(N/N=C/c1ccc(N2CCOCC2)cc1)c1ccccc1	/	6.1	1	/	48	i	8	4	0.6
12	Cc1ccc[n+](CC(=O)c2ccc(Cl)cc2)c1	2.2	-3.6	-7	0.62	/	/	18	17	9.9
13	S=c1[nH]nc(Cc2ccccc2)n1-c1cccc2ccccc12	1.0	1.0	4	0.68	6	i	-23	-21	-1.8
14	Cc1ccc(C(=O)NC(Cc2c[nH]c3ccccc23)C(=O)O)o1 (stereo unspecified)	4.6	-2.8	7	0.77	-24	/	/	/	/
15	COc1ccc(NC(=O)c2sc3nc(C)nc(N4CCOCC4)c3c2C)c(OC)c1	-19	-0.7	3	0.7	1	i	7	3	4.7
16	Cc1cccc(N2CCN(C(=O)CCS(=O)(=O)c3ccc4c(c3)NC(=O)CO4)CC2)c1C	1.9	-1.0	0	0.69	-3	i	0	10	2.9
17	CCC(Oc1ccc(C)cc1)C(=O)Nc1ccc2c(c1)n(C)c(=O)n2C (stereo unspecified)	1.9	-3.0	-9	0.6	2	i	-10	-5	7.4
18	CC(C)CC(C(=O)O)N1C(=O)C2C3C=CC(C2C1=O)C1C(=O)N(C(CC(C)C)C(=O)O)C(=O)C31 (stereo unspecified)	1.4	2.5	11	0.66	-4	i	2	10	0.3
19	C=C(C)CN(CC)C(=O)CCc1nnc(CCc2c[nH]c3ccccc23)o1	6.7	1.8	-2	0.69	-5	i	-4	-5	0.9
20	CC(=O)Nc1nnc(SCC(=O)NC2CC2)s1	5.7	5.4	-5	0.7	2	i	5	12	-2.6
21	Cc1cccc(Cn2c(=O)c3c(nc4n3CCCN4Cc3ccccc3)n(C)c2=O)c1	0.9	1.8	0	0.76	0	/	/	/	/
22	CC(=O)NCCc1ccc(S(=O)(=O)NC2OC(=O)c3ccccc32)cc1 (stereo unspecified)	1.4	-1.3	-8	0.7	-6	/	/	/	/
23	CCC(=O)Nc1ccc(C(=O)CSc2nnc(-c3ccc(NS(C)(=O)=O)cc3)n2C)cc1OC	6.4	1.9	-11	0.69	14	/	/	/	/
24	Cc1ccc(NC(=S)NNC(=O)c2c([N+](=O)[O-])c(C)nn2C)cc1	5.1	0.3	12	0.71	12	/	/	/	/
25	O=C(Nc1ccc2c(c1)OCCO2)c1cccc(Br)c1	1.0	1.3	-2	0.67	-10	i	-18	-26	-2.8
26	CCN(CCCNC(=O)CCc1nc(-c2ccc(C)cc2)no1)c1cccc(C)c1	2.9	1.9	-2	0.75	19	/	/	/	/
27	CC(=O)N1CCN(c2ccc(NC(=O)c3ccc([N+](=O)[O-])cc3)cc2)CC1	3.2	-3.2	-2	0.71	-3	i	20	12	-0.1
28	O=C1CC(=O)N(c2ccccc2)N1c1ccccc1	2.9	0.5	0	0.66	97*	i	-7	-34	19
29	Cc1c(CBr)[n+](=O)c2c(n1[O-])C(Br)CCC2Br (stereo unspecified)	4.3	-0.2	7	0.65	-39	i	14	4	-1.3
30	COc1cc(/C=C2\SC(=O)NC2=O)ccc1OCc1ccc(Cl)nc1	-10.0	-3.7	13	0.7	/	i	2	3	-4.2

# Continuation.
nr	smiles	UCH37 inh	HNF4A DNA FP	Beta2AR agonist	E coli growth	ALR inh	FGF22 binding	Ecoli rRNA inh	Ecoli rRNA inh OD600	Ecoli rRNA inh RFP
31	Nc1c(C(=O)Nc2nc3ccccc3s2)sc2nc(-c3cccs3)ccc12	8.2	31	-25	0.68	-1	/	/	/	/
32	O=C(O)c1csc(-c2ccc(Cl)cc2)n1	-0.5	0.8	2	0.68	30	i	5	1	-3.1
33	COc1ccc(NC(=O)CSc2nccn2-c2cccc(OC)c2)cc1	1.2	-0.7	9	0.72	98*	/	/	/	/
34	O=c1oc2c(O)cccc2cc1-c1nc2ccccc2[nH]1	-184	-82	5	0.67	-14	i	15	18	-0.1
35	Cc1ccccc1OCCOC(=O)c1cc(S(=O)(=O)N2CCOCC2)ccc1C	/	-8.8	/	/	/	i	2	6	-1.4
36	CC(=O)Nc1ccc(S(=O)(=O)NC(C)C(=O)NC(C)c2ccccc2)cc1 (stereo unspecified)	5.1	-9.1	0	0.7	99*	i	7	-1	-15
37	CCNS(=O)(=O)c1ccc(NC(=O)Nc2cccc(OC)c2)cc1	-1.4	-1.5	22	0.6	/	/	/	/	/
38	CCc1nnc(NC(=O)CN2CCN(Cc3cccc(F)c3)CC2)s1	0.8	2.1	-11	0.66	-3	i	5	7	2.5
39	O=C(Oc1cc(=O)oc2c1c(=O)n1c3c(cccc23)CC1)c1ccc(F)cc1	/	2.6	5	/	-28	i	-7	-24	-6.3
40	CC1C(C#N)=C(N)OC2=C1C(=O)CC(C)(C)C2 (stereo unspecified)	1.0	1.9	-6	0.72	6	/	/	/	/
41	O=C(CSc1nnc(-c2ccc(Cl)cc2Cl)n1C1CCCCC1)NC1CCS(=O)(=O)C1 (stereo unspecified)	1.0	3.8	18	0.6	-5	/	/	/	/
42	CNC(=S)N(CCO)Cc1cc2cc3c(cc2[nH]c1=O)OCO3	-104	-0.8	17	0.67	-30	i	3	13	2.1
43	CC[C@@H]1CCCCc2ccccc2[C@H](C(=O)C[C@H](O)CC(C)=O)OC1=O	-0.3	2.2	-1	0.71	/	i	5	7	1.9
44	CCC(=O)c1ccc(OCC(=O)O)c(OC)c1	0.2	-2.9	4	0.66	-5	i	15	11	-7.9
45	CC(C)C(=O)Nc1nnc(-c2ccccc2)o1	5.2	-1.2	-4	0.69	-2	i	-24	-38	-6.8
46	CC/C(=N\NC(=S)Nc1cc(C)ccc1C)c1ccc(OC(F)F)cc1	/	4.2	-5	/	-3	/	/	/	/
47	NC(=O)c1ccsc1NC(=O)CCS(=O)(=O)c1ccc(F)cc1	-2.1	1.5	3	0.66	26	i	0	0	2.9
48	Cc1onc(-c2ccccc2)c1C(=O)NCCc1c[nH]c2ccccc12	1.3	2.3	12	0.71	-5	/	-10	4	-6.9
49	CN(Cc1cnc2nc(N)nc(N)c2n1)c1ccc(C(=O)NC(CCC(=O)O)C(=O)O)c2ccccc12 (stereo unspecified)	/	-3.6	-7	/	/	i	10	8	20
50	COc1cc(C2Nc3ccccc3C(=O)N2c2ccc3c(c2)OCCO3)ccc1OCC(C)C (stereo unspecified)	-7.6	-2.5	-6	0.71	-6	/	/	/	/
51	Cc1ccccc1C(=O)OCCN1CCOCC1	0.2	-1.1	-1	0.69	-4	/	/	/	/
52	CN1CCN(S(=O)(=O)c2ccc(-c3ccccc3)cc2)CC1	3.1	-1.2	0	0.72	-2	/	/	/	/
53	COc1cc(/C=C/C(=O)OCC(=O)c2c(N)n(C)c(=O)n(C)c2=O)ccc1OCC#N	0.3	2.8	6	0.66	-1	i	11	5	2.3
54	CS(=O)(=O)Nc1cccc(-c2cn3ccccc3n2)c1	-26	3.9	-26	0.7	25	i	-20	-28	-4.4
55	O=C(CCc1nnc2ccc(N3CCOCC3)nn12)Nc1ccc(F)cc1F	5.5	-2.8	-2	0.67	-3	i	0	12	0.6
56	CCC1(C)CC2(CCCN(CCC(=O)c3ccccc3)C2)CCO1 (stereo unspecified)	0.1	0.3	8	0.59	15	i	8	-4	-6.8
57	CC(=O)NCCn1c(SCC(=O)NCCC(C)C)nc2ccccc2c1=O	3.6	3.5	-7	0.7	/	/	/	/	/
58	COc1cccc(NC(=S)NCCc2ccccn2)c1	3.3	1.3	3	0.7	-10	i	10	9	3.4
59	CCOC(=O)/C(C#N)=C\C1=C(N2CCCC2)CC(C)(CC)OC1 (stereo unspecified)	-3.4	1.2	-10	0.74	20	/	/	/	/
60	CCN(c1ccccc1)S(=O)(=O)c1ccc(N2CCN(c3ccc(O)cc3)CC2)nc1	4.7	3.1	2	0.7	55	i	-15	-21	-5.4

# Individual results from the entries so far.
# no. 31 @ Beta2AR agonist: -25
# no. 48 @ ALR inh: -5
# no. 49 @ HNF4A DNA FP: -3.6
# no. 60 @ ALR inh: 55

# More results.
nr	smiles	UCH37 inh	HNF4A DNA FP	Beta2AR agonist	E coli growth	ALR inh	FGF22 binding	Ecoli rRNA inh	Ecoli rRNA inh OD600	Ecoli rRNA inh RFP
61	Cc1ccc(CN2CCN(/N=C/c3cc(Br)cc(Br)c3O)CC2)c(C)c1	/	-3.2	2	/	15	i	/	/	/
62	S=c1nc2ccccc2c2nc(-c3cccnc3)[nH]n12	7.8	2.3	3	0.64	/	i	0	-4	-4.9
63	COc1ccccc1S(=O)(=O)N(C)C[C@@H]1Oc2cc(C#CCC(C)C)ccc2S(=O)(=O)N([C@H](C)CO)C[C@@H]1C	/	-2.0	/	/	/	i	-1&2	0&2	0.4&-1.6
64	COc1ccc(C(=O)NNC(=O)C(=O)NC(C)c2ccccc2)cc1OC (stereo unspecified)	4.3	2.5	1	0.7	-13	/	0	-8	0.4

# Full records from above. Order of values: UCH37 inh, HNF4A DNA FP, Beta2AR agonist, E coli growth, ALR inh, FGF22 binding, Ecoli rRNA inh, Ecoli rRNA inh OD600, Ecoli rRNA inh RFP
# S=c1nc2ccccc2c2nc(-c3cccnc3)[nH]n12 in the list: 7.8, 2.3, 3, 0.64, /, i, 0, -4, -4.9
# COc1ccc(C(=O)NNC(=O)C(=O)NC(C)c2ccccc2)cc1OC (stereo unspecified) in the list: 4.3, 2.5, 1, 0.7, -13, /, 0, -8, 0.4
# Cc1ccc(CN2CCN(/N=C/c3cc(Br)cc(Br)c3O)CC2)c(C)c1 in the list: /, -3.2, 2, /, 15, i, /, /, /
